Screening data from PubChem.
AID504770: E. coli YBA685 growth inhibition, screen for V. cholerae RctB inhibitors; AID 504770; E. coli YBA685 rctB-dependent plasmid, OD600 growth, 3 h; stronger effect = lower value; z-score (no concentration beside the values); hit rate 0.27% among 130,000;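 active = z-score under -2 on both plates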;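 also: wells of about 30 µL received 100 nL stock; score is relative to mean and SD of the test wells; the first replicate is given; strong numbers were not always called active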
CapD inh: blocks the Bacillus anthracis CapD enzyme; purified CapD enzyme, fluorescence intensity read-out; stronger effect = lower value; some hits fall short of the stated cut; AID 492967; hit rate 0.23% among 140,000; z-score (no concentration beside the values);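 active = z-score under -4 in either of two replicates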;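 also: stock transfer was 100 nL into about 40 µL; score is relative to mean and spread of the plate; one replicate is shown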
Active calls of the source: *; x = no result given. Some of the compounds tested; rates above refer to the full screens.

| SMILES | AID504770 | CapD inh |
| --- | --- | --- |
| COC(=O)C(Cc1ccc(O)cc1)N1Cc2ccccc2C1=O (centres undefined) | -3.3 | 0.16 |
| Cc1ccc(S(=O)(=O)N2CCN(C(=O)OC(C)C)CC2)cc1 | 1.1 | 5.7 |
| CCN(CC)CCNc1nc2c(c(=O)[nH]c(=O)n2C)n1Cc1ccccc1Cl | -0.5 | x |
| CCOc1cc(/C=c2/sc3nc(-c4ccccc4OC(C)=O)nn3c2=O)ccc1OC(C)=O | x | -0.88 |
| c1ccc(-c2nc(-c3cccc4ccccc34)[nH]c2-c2ccccc2)cc1 | x | 79 |
| Cc1cc(N2CCN(C3CCCCC3)CC2)c2nncn2n1 | -0.5 | 1 |
| C=CCS(=O)(=O)Nc1ccccc1 | -0.65 | 0.01 |
| Cc1cc(N2CCOCC2)ccc1C=C1C(=O)c2ccccc2C1=O | 0.2 | 0.32 |
| Cc1ccc(Sc2nc(C)cc(C)c2S(C)(=O)=O)cc1 | -0.05 | 0.55 |
| O=C(Oc1c(C(=O)c2ccccc2)sc2ccccc12)c1ccco1 | -0.45 | -0.79 |
| CCCC(=O)NCCc1cc2ccc(C)cc2[nH]c1=O | -0.2 | -0.84 |
| Cc1nc(-c2ccc(Cl)cc2)sc1-c1ccnc(SCC(=O)N(C)c2ccccc2)n1 | x | 8.9 |
| O=S(=O)(N=P(C1CCCCC1)(N1CCOCC1)N1CCOCC1)c1ccccc1 | -0.4 | x |
| CCOc1nc2cccc(C(=O)OC(C)OC(=O)OC3CCCCC3)c2n1Cc1ccc(-c2ccccc2-c2nn[nH]n2)cc1 (centres undefined) | -0.3 | x |
| COCC(=O)Oc1c(C)cc(Br)cc1C | 0.45 | -0.31 |
| Cc1cc(C)cc(N2C(=O)CC(Sc3ccccc3C(=O)O)C2=O)c1 (centres undefined) | x | 0.46 |
| CO/N=C/c1ccc(N2CCN(C(=O)c3ccc(C)cc3)CC2)c([N+](=O)[O-])c1 | x | -0.04 |
| CNC(=O)CSc1cnc2ccccc2n1 | 2.1 | 1.3 |
| Cc1cccc(-n2nc(C)c(C(=O)N3CCCCC3)c2-n2cccc2)c1 | 0.05 | 0.49 |
| COC(=O)C1C(=O)NC(SCC(=O)Nc2c(C)cc(C)cc2C)=C(C#N)C1c1ccccc1Cl (centres undefined) | x | -0.07 |
| CCN(CC1COc2ccccc2O1)C(=O)Cc1coc2cc3c(cc12)CCC3 (centres undefined) | 0.45 | x |
| CC(=O)N1CC(C(=O)Nc2ccc(S(=O)(=O)N3CCOCC3)cc2)Oc2ccccc21 (centres undefined) | -0.4 | x |
| CCC(=O)NC(Nc1ccc(O)cc1)(C(F)(F)F)C(F)(F)F | 0.4 | 1.1 |
| CC(=O)N(Cc1cc2cc(C)ccc2nc1Cl)C1CCCC1 | -0.7 | x |
| CC(SC1=NCCN1S(=O)(=O)c1ccccc1)c1ccccc1 (centres undefined) | -0.6 | -0.41 |
| CC(C)(c1ccc(O)c(Cl)c1)c1ccc(O)c(Cl)c1 | -0.45 | -0.055 |
| CCCCC(CC)CN1CNC(=S)NC1 (centres undefined) | 0.5 | -0.13 |
| CCOc1ncccc1C(=O)N1CCN(C(c2ccccc2)c2ccccc2)CC1 | 0.55 | x |
| O=C(O)/C=C1\NC(=O)c2ccccc21 | 0.15 | -0.95 |
| COc1cc2c(cc1OC)C(c1ccccc1C(=O)O)=NCC2 | -0.15 | x |
| CSc1nsc(NC(=O)Nc2ccccc2C(F)(F)F)n1 | -1.3 | x |
| COc1ccccc1-n1ccnc1SCC(N)=O | -0.2 | x |
| Cc1nnc(SCC(=O)N2CCOCC2)n1/N=C/c1ccc(Cl)cc1 | 1 | x |
| CC(C)C(=O)Nc1cccc(Cl)c1 | -0.55 | 0.54 |
| CC1CCc2c(sc(NC(=O)c3cc4nc(-c5ccccc5)cc(C(F)(F)F)n4n3)c2C#N)C1 (centres undefined) | -0.75 | 0.24 |
| O=C(NCC1OCCc2ccccc21)c1ccc(Br)cc1 (centres undefined) | 1 | 0.045 |
| O=C1NC(=Nc2ccccc2)S/C1=C\c1ccc(-c2ccccc2[N+](=O)[O-])o1 | x | -0.085 |
| O=C1c2oc3ccccc3c(=O)c2C(c2ccccc2)N1c1nccs1 (centres undefined) | -0.85 | 2.8 |
| N#Cc1ccc(-c2ccc(F)cc2)n(CC(=O)N2CCC(C(N)=O)CC2)c1=O | 1.1 | x |
| O=C(O)c1ccc2c(c1)-c1cc(C(=O)O)ccc1S2(=O)=O | x | 1.6 |
| CCCCOC(=O)Nc1[nH]c(C)c(C(=O)OCC)c1C | -0.1 | x |
| CCOC(=O)c1c(S(N)(=O)=O)c(C)n(-c2ccccc2)c1C | -0.5 | 0.73 |
| NC(=S)Nc1ccc(C(F)(F)F)cc1 | x | 0.03 |
| N#CC(Nc1ccc(I)cc1)c1ccccc1 (centres undefined) | 0.05 | -0.23 |
| CCS(=O)(=O)N1Cc2ccccc2CC1C(=O)N1CCc2ccccc21 (centres undefined) | -1.1 | x |
| C=CCn1c(CCCNC(=O)C(C)(C)C)nc2ccccc21 | -0.4 | 0.34 |
| CCOc1ccc(-n2c(=S)sc3c2nc(SCC(=O)N(CC)CC)n2c4ccccc4nc32)cc1 | x | 1.4 |
| COC(=O)C1=C(N)Oc2c(c(=O)oc3ccccc23)C12C(=O)Nc1ccccc12 (centres undefined) | x | 0.47 |
| O=C(OCC(=O)N1CCN(c2ccccc2)CC1)c1ccccn1 | -0.75 | x |
| O=C(Nc1ccc2ccccc2c1)C1CCCN1C(=O)OCc1ccc(-c2ccccc2)cc1 (centres undefined) | x | -0.52 |

Next part:
| SMILES | AID504770 | CapD inh |
| --- | --- | --- |
| COCCNC(=O)C1CCC(Cn2c(=S)[nH]c3ccccc3c2=O)CC1 (centres undefined) | -0.65 | -0.11 |
| O=C(O)CSCC(=O)N1CCC2(CC1)OCCO2 | 0.15 | -0.78 |
| COc1ccc(C(=O)c2ccccc2)cc1CN1CCOCC1 | -0.4 | 4.2 |
| O=C(O)CCSc1cccc2cccc(C(=O)O)c12 | -0.1 | -0.68 |
| C=CCN(CC=C)CC(O)Cn1c2c(c3cc(C)ccc31)CCCC2 (centres undefined) | 1.4 | 96 |
| Cc1ccc(CNC(=O)c2cccn3c(=O)c4ccc(Cl)cc4nc23)o1 | 0.85 | x |
| O=C1CCCC2=C1C(c1cccnc1)Nc1ccc3ccccc3c12 (centres undefined) | -0.25 | 40 |
| COc1ccc(C2=NN3C(C2)c2cc(Cl)ccc2OC3c2ccc([N+](=O)[O-])cc2)cc1OC (centres undefined) | x | -0.17 |
| Cc1nn(CC(=O)Nc2sc3c(c2C(=O)OC(C)C)CCCC3)c(C)c1[N+](=O)[O-] | x | 0.07 |
| CC(=O)Nc1ccc(S(=O)(=O)N2CCC3(CC2)OCCO3)cc1 | -0.6 | x |
| OC1CCCN(CC(O)c2ccccc2)C1 (centres undefined) | -0.2 | x |
| COc1cc(/C=N/NC(N)=S)cc(OC)c1OC | x | -0.28 |
| O=C(NCCN1CCN(c2nccc(C(F)(F)F)n2)CC1)c1cccs1 | -1.4 | 0.6 |
| CCC1CCCCN1C(=O)Cn1cc(S(=O)(=O)N(C)C)ccc1=O (centres undefined) | 0.3 | x |
| COc1ccc(C2C(C(=O)N3CCCC3)c3cc(OC)c(OC)cc3C(=O)N2C)cc1 (centres undefined) | 1.6 | -0.16 |
| CC(C)(C)NC(=O)CSc1nnc(C(F)(F)F)n1N | -0.6 | x |
| CCCn1cnc2sc(C(N)=O)c(C)c2c1=O | 0.05 | x |
| CCc1c(C)c(C#N)c2nc3ccccc3n2c1-n1nc(C)cc1C | -0.65 | x |
| CCSC1=C(C#N)C(c2ccc(OCc3ccccc3)cc2)C2=C(CCCC2=O)N1 (centres undefined) | 0.7 | -0.065 |
| O=C(O)c1c(CNC2CCCc3ccccc32)c2ccccc2n1Cc1ccc(F)cc1Cl (centres undefined) | -0.55 | 15 |
| COc1cccc(-n2c(SCC(=O)NC3CCCC3)nc3c(c2=O)SCC3)c1 | -0.4 | 0.55 |
| Cc1[nH]n(-c2cccc(Cl)c2)c(=O)c1C=NC1CCS(=O)(=O)C1 (centres undefined) | 0 | x |
| CC(C)CN(CC(C)C)C(=O)NCc1noc2ccccc12 | -0.9 | 3 |
| O=C(C1CN(CC(=O)N2CCNC2=O)c2ccccc2O1)N1CCOCC1 (centres undefined) | -0.4 | x |
| CN(C)S(=O)(=O)Oc1ccsc1C(=O)Nc1ccc(Cl)c(Cl)c1 | x | -0.59 |
| O=C(NCc1ccc(-c2nc3ncccc3o2)cc1)c1ccc(Cl)cc1 | -0.1 | 1.9 |
| Cc1ccc(Nc2nn(CCC(=O)O)c(=S)n2-c2ccc(C)cc2)cc1 | -1.2 | x |
| CC(C)CCNC(=O)c1ccc(N(C)S(C)(=O)=O)cc1 | 0.95 | 0.42 |
| Cc1cc2cc(CNC(=O)CCC3CCCCC3)ccc2n1C | 0.3 | -0.13 |
| Cc1ccc(S(=O)(=O)N(CC(=O)NC2CCCCC2)Cc2ccco2)cc1C | -0.7 | x |
| O=C(CC=Nc1ccccc1)c1ccccc1 | -1.4 | -0.62 |
| NC(=O)c1cc(NS(=O)(=O)/C=C/c2ccccc2)cc(C(N)=O)c1 | 0.2 | x |
| NC(=O)c1sc2nc3c(cc2c1N)CCCCC3 | 0.15 | x |
| Cc1[nH]n(-c2ccccc2)c(=O)c1C(c1ccccc1OCc1ccccc1)c1c(C)[nH]n(-c2ccccc2)c1=O | x | -0.47 |
| CC1(C)CCc2cc(S(=O)(=O)N(Cc3ccccn3)Cc3ccccn3)ccc2O1 | -0.7 | -0.12 |
| O=C1NC(=O)/C(=C\c2cn(Cc3ccccc3)nc2-c2cccnc2)S1 | -0.9 | x |
| CCCN(CCC)C(=O)Cn1c(=O)n(CCCCC(=O)Nc2ccc(OC)cc2)c(=O)c2ccccc21 | -0.5 | -0.31 |
| CCC1(C)NC(=O)N(/N=C/c2cc(C)n(CC(C)C)c2C)C1=O (centres undefined) | 1.4 | x |
| c1ccc(C(NCc2cccs2)c2ccccc2)cc1 | -0.1 | 0.3 |
| Cc1cc(-c2nnc(-c3cccc(Cl)c3)o2)no1 | 0.55 | 0.79 |
| CC(C)(C)Sc1ccccc1CN1CCCCC1COC(=O)N1CCN(c2sc(S(N)(=O)=O)cc2[N+](=O)[O-])CC1 (centres undefined) | x | -0.53 |
| COc1ccc(C(=O)Nc2ccc(Cl)cc2)cc1S(=O)(=O)Nc1ccc(Cl)cc1 | 1.1 | 0.31 |
| CCOC(=O)c1c(NC(=O)C(C)Sc2nnc(CNC(=O)COc3ccccc3)n2C)sc2c1CCCC2 (centres undefined) | x | -0.34 |
| CCOC(=O)C1=NN(c2ccc(OC)cc2)C2(S1)c1ccccc1C(c1ccc(Cl)cc1)=NN2c1ccccc1 (centres undefined) | x | -0.52 |
| Cc1ccc(SCC(=O)NC2CCCCC2C)cc1 (centres undefined) | 1.7 | -0.09 |
| CC1CCN(C(=O)c2scc3c2CCCC3)CC1 | -0.5 | -0.055 |
| O=C(NCCN1CCOCC1)c1cc(-c2ccc(Cl)cc2)cs1 | x | 0.23 |
| COc1ccc(OC)c(NC(=O)c2cc3cc(Br)ccc3oc2=O)c1 | x | 0.005 |
| Cc1nnc(SCC(=O)N2CCCCC2)o1 | -0.65 | 0.27 |
| Cc1ccc(C)c(N2CCN(S(=O)(=O)c3ccc(F)c(F)c3)CC2)c1 | x | 0.1 |

Reprinted from the part before: 3 compounds; new compounds follow.
| SMILES | AID504770 | CapD inh |
| --- | --- | --- |
| COc1ccc(OC)c(NC(=O)c2cc3cc(Br)ccc3oc2=O)c1 | x | 0.005 |
| Cc1nnc(SCC(=O)N2CCCCC2)o1 | -0.65 | 0.27 |
| Cc1ccc(C)c(N2CCN(S(=O)(=O)c3ccc(F)c(F)c3)CC2)c1 | x | 0.1 |
| CC(=O)Nc1ccc(-c2nnc3n(Cc4ccccc4Cl)c(=O)c4ccccc4n23)cc1 | -0.05 | -0.04 |
| O=C(CSc1nccn1-c1ccccc1)NO | 0.4 | x |
| O=C1CC(n2nnn(Cc3ccccc3)c2=S)C2COC1O2 (centres undefined) | x | -0.28 |
| CC1CC(C)CN(C(=O)c2cc3c(s2)CCCC3)C1 (centres undefined) | -0.25 | 0.56 |
| COc1ccc(-n2c(=O)c3c(n4c(SC(C)C)nnc24)-c2ccccc2CC32CCCCC2)cc1 | x | 0.18 |
| N#CC(C(=O)CC12CC3CC(CC(C3)C1)C2)c1nc2ccccc2[nH]1 (centres undefined) | 0.35 | x |
| Cc1ccccc1Nc1ncnc2nc[nH]c12 | 0 | -0.41 |
| COC(=O)c1ccc(NC(=O)CSc2nnc(C)c3ccccc23)cc1 | x | -0.24 |
| Cc1cc(C)c2c(=O)[nH]c(SCC(=O)NC34CC5CC(CC(C5)C3)C4)nc2n1 | -0.5 | x |
| CSc1ncc(Cl)c(C(=O)Nc2ccc(C)cc2)n1 | -0.1 | 0.7 |
| CC1c2cccn2CCN1C(=O)Nc1ccccc1 (centres undefined) | 0.7 | -0.74 |
| CN(C(=O)c1nn(-c2ccc(Cl)cc2)c(=O)c2ccccc12)C1CCCCC1 | x | 0.63 |
| CC1CCCCN1C(=O)C1=CC(c2ccco2)=NS(=O)(=O)N1C (centres undefined) | 0.2 | 4.8 |
| CC(Oc1ccc(Cl)cc1)C(=O)OCC(=O)Nc1ccc(F)cc1F (centres undefined) | -1.1 | -0.52 |
| Cn1c(SCc2ccccc2C#N)nnc1C(F)(F)F | -1.1 | x |
| COC(=O)C1=C(C(=O)OC)SC2(S1)C(C(=O)OC)=C(C(=O)OC)SC1=C2c2ccccc2N(C(=O)C(C)C)C1(C)C | x | -0.45 |
| CC(=O)N(Cc1ccc2c(c1)OCO2)C1CC(=O)N(c2ccccc2)C1=O (centres undefined) | -1.1 | 0.095 |

Compound profiles (already shown).
CN(C(=O)c1nn(-c2ccc(Cl)cc2)c(=O)c2ccccc12)C1CCCCC1 across the screens: AID504770: x; CapD inh: 0.63
Cc1ccccc1Nc1ncnc2nc[nH]c12 across the screens: AID504770: 0; CapD inh: -0.41
